NPR1 antag = Natriuretic polypeptide receptor (hNpr1) antagonism - Primary qHTS. Atrial natriuretic peptide receptor 1 (Homo sapiens), P16066. 76,000 compounds, 1.6% hits. HEK293 hNpr1 GloSensor cGMP, ANP-stimulated luminescence. Potency, µM (doses to about 46.3 µM), inactives show at the top dose activity change, negative = inhibition, usual class: inhibitors; active = well fitted inhibition curve with a large enough effect; inconclusive = small, poorly fitted or top-dose-only effect; inactive = no such curve, though single readings can be large or run the other way;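 further: nearly all actives have a fitted effect of over 60% in size; nearly all hits also lower the signal before the agonist is added; a reference antagonist and vehicle were the controls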
Target sequence (P16066 whole entry, looked up): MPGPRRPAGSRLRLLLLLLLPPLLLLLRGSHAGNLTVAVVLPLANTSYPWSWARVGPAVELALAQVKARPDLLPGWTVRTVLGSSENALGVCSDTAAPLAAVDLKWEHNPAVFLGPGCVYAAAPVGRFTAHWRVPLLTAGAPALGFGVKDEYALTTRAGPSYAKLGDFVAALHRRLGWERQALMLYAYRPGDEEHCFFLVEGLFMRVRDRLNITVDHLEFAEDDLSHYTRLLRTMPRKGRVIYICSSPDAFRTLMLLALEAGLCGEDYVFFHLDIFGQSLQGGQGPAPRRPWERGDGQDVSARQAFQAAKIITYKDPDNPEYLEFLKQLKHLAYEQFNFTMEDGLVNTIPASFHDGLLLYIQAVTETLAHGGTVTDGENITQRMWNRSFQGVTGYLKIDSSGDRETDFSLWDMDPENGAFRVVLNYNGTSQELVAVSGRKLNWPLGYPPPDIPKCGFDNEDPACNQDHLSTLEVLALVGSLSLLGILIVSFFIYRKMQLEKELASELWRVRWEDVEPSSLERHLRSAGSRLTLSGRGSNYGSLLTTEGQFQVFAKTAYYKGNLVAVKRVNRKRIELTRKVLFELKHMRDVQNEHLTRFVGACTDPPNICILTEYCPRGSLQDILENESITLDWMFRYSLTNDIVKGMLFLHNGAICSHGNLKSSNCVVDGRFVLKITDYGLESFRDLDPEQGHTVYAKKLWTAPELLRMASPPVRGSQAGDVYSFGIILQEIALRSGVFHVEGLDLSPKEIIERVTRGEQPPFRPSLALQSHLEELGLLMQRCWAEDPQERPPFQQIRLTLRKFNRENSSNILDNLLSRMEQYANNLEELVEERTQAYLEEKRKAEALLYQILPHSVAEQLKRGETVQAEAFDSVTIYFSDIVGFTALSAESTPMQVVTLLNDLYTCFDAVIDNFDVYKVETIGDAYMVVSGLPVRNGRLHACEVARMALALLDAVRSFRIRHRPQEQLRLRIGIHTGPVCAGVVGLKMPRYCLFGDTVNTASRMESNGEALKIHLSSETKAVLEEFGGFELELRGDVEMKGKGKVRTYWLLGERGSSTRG
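HEK293 cells stably expressing human Npr1 and cGMP GloSensor pGS-40F, loaded 2 h with 2% GloSensor reagent, given compound 30 min at room temperature. Luminescence read before and 20 min after 0.1 nM hNppA.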
Numbers without * were called inactive; ? = inconclusive; & = joins results of further samples; [ ] = remark or other dose. On the % scale 0 is the no-effect control and ±100 the full control effect; potency means the concentration at half of the fitted maximal effect.

# | smiles | NPR1 antag
1 | COc1ccc(-c2cc(N3CCCC(NC(=O)c4cc(F)ccc4Cl)C3)n[nH]2)cc1 (stereo not drawn) | -13.6%
2 | O=C(NC1CCCCCC1)c1nnn2cc(-c3ccccc3)[nH]c(=O)c12 | 7.2%
3 | O=C1C[C@@H]2CCN(C(=O)COc3ccccc3)C[C@@H]2CCN1CCN1CCOCC1 | -0.7%[70.6 µM]
4 | COc1cc(C(=O)N2CCC(C(=O)O)(n3cccn3)CC2)ccc1F | 0.0%
5 | CC1(C)[C@H](Cc2cc(CN3CCCCC3)on2)C[C@@H]1NC(=O)c1ccco1 | 2.9%[70.6 µM]
6 | COc1cccc(CN2Cc3cc(NC(=O)c4cccc(F)c4)ccc3OC(C)C2=O)c1OC (stereo not drawn) | -2.5%
7 | CCCNC(=O)N(C1CCOCC1)C1CCN(S(=O)(=O)c2cc(F)ccc2C)CC1 | 1.0%
8 | CN(Cc1cnn(C)c1)c1ccc(-c2nc(COc3ccccc3)no2)cn1 | -3.0%
9 | COc1ccc(C(=O)N2CC[C@](O)(c3ccccc3)[C@H](N(C)C)C2)cn1 | -1.6%
10 | CC(C)(Oc1nn(CC2CCOCC2)c2ccccc12)C(=O)NC1CCOCC1 | 0.0%[70.6 µM]
11 | CCn1cc(-c2ccc(F)cc2)cc1C(=O)NCc1cccnc1 | -12.6%
12 | O=C(Cc1ccsc1)NCCC1CCN(C(=O)Nc2ccc(F)cc2F)CC1 | 3.5%
13 | COC(=O)[C@@H]1Cc2ncn(Cc3ccc(OC)cc3)c2CN1C(=O)COc1ccccc1 | 0.6%
14 | COc1ccc2[nH]c3c(c2c1)CCN(C)C31CCN(C(=O)Cc2cccnc2)CC1 | 2.2%
15 | Cc1cc(C[C@@H]2COC[C@@H]2NC(=O)CCCn2cnc3ccccc3c2=O)on1 | 6.0%
16 | COc1cccc(C(=O)N2CCc3nc(C)nc(-c4ccc(O)cc4)c3C2)c1 | -1.1%
17 | CC(=O)N1CCC(N2C[C@@H]3OCC(=O)N[C@@H]3C2)CC1 | 3.2%[70.6 µM]
18 | CC(=O)Nc1ccc(S(=O)(=O)N2C[C@@H]3C[C@H](C2)c2c(-c4ccc(Cl)cc4)ccc(=O)n2C3)cc1 | 3.1%
19 | COCCOC1CCOC2(CCN(C(=O)CCn3nc(C)cc3C)CC2)C1 (stereo not drawn) | -7.8%
20 | O=C(C1CC1)N1CCC(c2nc(C3CCOCC3)no2)CC1 | 5.7%
21 | CCCCc1ncc(-c2nccn2C2CCNC2)[nH]1 (stereo not drawn) | 0.0%
22 | COCCNC(=O)C1(C)CN(Cc2ccccc2)Cc2ccc(NCC(C)C)nc21 (stereo not drawn) | -12.2%[70.6 µM]
23 | O=C(Cc1ccccc1)N1CCC(c2noc(-c3ccncc3)n2)C1 (stereo not drawn) | -9.6%
24 | Cn1ncnc1CCNC(=O)C1CCN(C(=O)C2CCC2)CC1 | 4.7%
25 | CN1CCN(Cc2nnc(C3CCN(C(=O)C4(N)CC4)CC3)n2C)CC1 | 2.6%
26 | CCN(Cc1ccccc1)C(=O)CCc1ccc2c(c1)CN(C(=O)NC(C)C)CCO2 | 2.1%
27 | O=C(Cc1cn2ccsc2n1)N1CCCn2nc(C(O)C3CC3)cc2C1 (stereo not drawn) | 1.2%
28 | O=S(=O)(c1ccccc1Cl)N1CCC(c2noc(COCC3CC3)n2)CC1 | -26.1%
29 | COCCNC(=O)c1c(C)oc2c1CN(Cc1cccc(F)c1)CC2 | 0.6%
30 | C=CCNC(=O)N1CCC(O)(c2csc(CN3CC[C@@H](O)C3)n2)CC1 | 3.9%[70.6 µM]
31 | Cc1ccnc(N2CCC(O)(c3ccc(F)cc3)CC2)n1 | 1.9%
32 | CS(=O)(=O)N1CCCN(C(=O)NCc2ccc(F)cc2)CCNC(=O)CC1c1ccccc1 (stereo not drawn) | 6.2%
33 | COCCN1CC(CO)C2(CCN(Cc3ccc(OC)cc3OC)CC2)C1 (stereo not drawn) | -0.8%
34 | CC(C)c1noc(-c2cccn3c(CNC(=O)Cc4ccccc4Cl)nnc23)n1 | -4.1%
35 | CCC(=O)N(C1CCOCC1)C1CCN(S(=O)(=O)c2cccc(Cl)c2)CC1 | 1.6%
36 | NC(=O)[C@H](CC1CCCCC1)NC(=O)[C@@H]1CN(C(=O)c2cccnc2)CCN1C(=O)c1cccs1 | -3.2%
37 | CCOc1ccc2c(n1)CCN(C(=O)NCC(C)C)C2 | 5.9%
38 | CC(C)CC(=O)N1CCC(c2nc(C3CCOCC3)no2)CC1 | 17.8%
39 | COc1ccc(-n2nc(C)c([C@@H]3C=C[C@@H](NC(=O)Nc4cccc(C#N)c4)C3)c2C)cc1 | ?
40 | CN(C)C[C@@H]1CN(c2ccccn2)C[C@H]1NC(=O)c1ccoc1 | 4.7%
41 | Cc1ccc(-c2nc3cnccn3c2NCCC(=O)N2CCCCC2)cc1 | -13.8%
42 | COc1cccc(CN2C[C@@H](CO)[C@H](NC(=O)C3CC3)C2)c1OC | 4.1%
43 | CCC(CC)NC(=O)CCC1CCN(C(=O)c2ccc(C)cc2)CC1 | -13.4%
44 | O=C(CC[C@H]1NC(=O)c2ccccc2NC1=O)NCCn1cnc2ccccc2c1=O | -0.4%
45 | CCN(CC)Cc1cnc2c(C(=O)N3CCC(C(N)=O)CC3)cnn2c1 | 2.9%
46 | CCCC1(C(=O)O)CCCN(C(=O)c2cccc(OC)c2OC)C1 (stereo not drawn) | 7.3%
47 | Cc1noc(C)c1S(=O)(=O)N1CCCN(C(=O)C2CC2)C(c2ccccc2)CC(=O)NCC1 (stereo not drawn) | 0.7%
48 | Cc1cn2nc(C(=O)NCCc3cccs3)cc2c(N2CCSCC2)n1 | -4.3%
49 | Cc1noc(C)c1S(=O)(=O)N1C[C@@H](F)C[C@H]1C(=O)N1CCCCC1 | 4.5%
50 | CC(C)(Oc1nn(CC2CCOCC2)c2ccccc12)C(=O)Nc1cccnc1 | 3.5%[70.6 µM]
51 | COC(=O)[C@@H](Cc1c[nH]c2ccccc12)NC(=O)[C@H]1CNCCN1S(=O)(=O)c1ccccc1 | -1.3%
52 | N#Cc1cccc(NC(=O)c2cccc(CN3CCN(CCO)CC3)c2)c1 | -17.6%
53 | Cc1ccccc1-c1ccc2c(n1)CN(CCOc1ccccc1)C(=O)CO2 | -21.4%[70.6 µM]
54 | Cc1cc2nc3n(c(=O)c2n1CC(=O)Nc1cccc(C#N)c1)CCCCC3 | -1.8%
55 | Cc1ccc(CNC(=O)C2CCCN(c3cnn(C)c(=O)c3)C2)o1 (stereo not drawn) | -6.0%
56 | O=C1N(CCc2ccccc2)c2ccccc2C12CCN([S+](=O)([O-])c1cccc(C(F)(F)F)c1)C2 (stereo not drawn) | 20.3%&-0.8%
57 | CC(=O)c1ccc(NC(=O)Cn2ccn3nc(-c4ccccc4)c(CO)c3c2=O)cc1 | 1.5%
58 | O=C(NC1CC1)c1nc(-c2cc(Cl)cc(Cl)c2)c2ccccn12 | -4.2%[70.6 µM]
59 | Cc1nc(CN2CC3(CCN(C)C3)c3cc(C(=O)Nc4ccc(F)cc4)ccc32)cs1 (stereo not drawn) | -4.4%[70.6 µM]
60 | COc1ccc(C(=O)NC2CCN(c3ccc(=O)n(C)n3)CC2)cn1 | -2.8%

Further records:
# | smiles | NPR1 antag
61 | O=C(C1CCOCC1)N1CCC(c2nc(C3CCOCC3)no2)CC1 | 15.1%
62 | O=C(CCc1ccccc1)N1CCCN(c2cc(-c3ccc(Cl)cc3)[nH]n2)CC1 | -3.3%
63 | Cc1ccc(CN(C)C(=O)c2coc(COc3ccc4c(c3)OCO4)n2)o1 | 4.8%
64 | COc1ccccc1-c1[nH]nc2ncc(CN(C)Cc3ccccc3)nc12 | -1.0%[70.6 µM]
65 | O=C(Cc1c[nH]c2ccccc12)N1CCN(C(=O)N2CC3CC(C2)[C@H]2CCCC(=O)N2C3)CC1 (stereo partly drawn) | 1.6%
66 | COCCCN(CCC(=O)NCCC(C)C)C(=O)c1cc(C)oc1C | 0.2%
67 | COCc1ccc(C(=O)NCC2COc3c(cccc3OC)C2)s1 (stereo not drawn) | 5.2%
68 | COCCOc1ccc2c(n1)CCN(C(=O)c1cccc(OC)c1OC)C2 | 0.0%
69 | N#CC1CCN(C(=O)c2nc(-c3ccc(Cl)cc3)c3ccccn23)CC1 | -20.3%
70 | COC1C(=O)N(c2cccc(F)c2)C12CCN(C(=O)c1cc3ccccc3[nH]1)CC2 (stereo not drawn) | -2.9%
71 | Cn1nnnc1C1CCCN(C(=O)C2CC2)C1 (stereo not drawn) | 10.4%
72 | O=C(O)COc1ccc(-c2nccc3c2C(=O)N(Cc2c[nH]c4ccccc24)CC(CNC(=O)Cc2ccc(Cl)cc2)O3)cc1 (stereo not drawn) | 2.1%
73 | Cc1noc([C@H]2CCN(C(=O)NCc3ccccc3)C[C@H]2NC(=O)C2CC2)n1 | -9.1%
74 | COc1cccc(-c2noc(N3CCCC3)n2)c1OC | 5.4%
75 | O=C(NCCc1nc(-c2cccnc2)n[nH]1)C1CCC(=O)N(C2CCCC2)C1 (stereo not drawn) | 3.1%
76 | CN1CCC(NC(=O)c2cccc3c2CCN3C(=O)Nc2ccccc2)CC1 | -6.6%
77 | O=C(NC1CCN(c2cc(-c3ccccc3)[nH]n2)CC1)c1cc(Cl)ccc1F | -21.1%
78 | Cc1cccc(N(C)C(=O)CN2C(=O)NC3(CCC(C)CC3)C2=O)c1 (stereo not drawn) | 0.6%
79 | Cc1ccc(C(=O)N[C@H]2CO[C@H]3[C@@H]2OC[C@H]3OC(=O)Nc2ccc(C(C)C)cc2)cc1 | -7.8%[70.6 µM]
80 | Cc1nc(-c2c3n(c(=O)n(Cc4cc(F)cc(F)c4)c2=O)CCCCC3)no1 | 0.0%
81 | Cn1cccc1C(=O)N1CCC(Nc2cccnc2)C1 (stereo not drawn) | 3.9%
82 | O=C(Nc1ccccc1)N1CC2CC(C1)[C@H]1CCCC(=O)N1C2 (stereo partly drawn) | -2.4%
83 | COc1ccc(-c2cc(N3CCCC(NC(=O)c4ccccc4Br)C3)n[nH]2)cc1 (stereo not drawn) | -19.5%
84 | CCN(Cc1ccccc1)C(=O)CN1CCCc2nc(C3CC3)ncc2C1=O | 4.8%
85 | O=C(Nc1ccccc1F)N1CCCC1c1nncn1-c1ccccc1 (stereo not drawn) | 0.2%
86 | COCC(=O)N[C@H]1CCN2C(=O)c3cc(-c4cccc(C)c4C)ccc3NC(=O)[C@@H]2C1 | -0.6%[70.6 µM]
87 | COCC(=O)N(C)C1CCCc2ccccc21 (stereo not drawn) | 15.1%[70.6 µM]
88 | Cc1cc(C(=O)N2CCC3(CC2)CC(N(C(=O)c2ccccc2)C2CC2)CCO3)n(C)n1 (stereo not drawn) | -1.6%
89 | O=C(C1CC1)N1C[C@@H]2OCC(=O)N(Cc3ccccn3)[C@@H]2C1 | 1.7%[70.6 µM]
90 | Cc1cc(NC(=O)c2cc3n(n2)CC(c2ccc4c(c2)OCO4)OC3)ccc1F (stereo not drawn) | ?
91 | Cc1ccc(-c2nc(C(=O)NCc3cccc(Br)c3)no2)cc1 | -3.8%
92 | O=C(Nc1cccnc1)c1ccnc(-c2nnc3ccc(Nc4ccccc4)nn23)c1 | -15.5%[70.6 µM]
93 | COc1ccc(CNC(=O)Cc2c[nH]c3ncc(-c4ccccc4)cc23)cc1OC | -27.7%[70.6 µM]
94 | CN(C)Cc1cn(CC2CCN(C(=O)c3ccc4c(c3)OCO4)CC2)nn1 | 1.7%
95 | COCc1c(C(=O)N[C@@H]2CN(c3ncccn3)C[C@H]2CN(C)C)noc1C | 5.2%
96 | Cn1cc(-c2cccc(Cl)c2)c2nc(CN3CC[S+](=O)([O-])CC3)cn2c1=O | -0.9%[70.6 µM]
97 | CCC[C@@H]1CN(C(=O)C2(c3ccc(F)cc3)CCOCC2)C[C@H]1N(C)C | -1.5%
98 | COc1cccc(C(=O)N2CCC3(CC2)N(C)C(=O)CS3(=O)=O)c1C | -1.7%
99 | COc1ccc([C@@H]2CN(C(=O)CCc3ccsc3)C[C@H]2N(C)C)cc1 | 3.6%
100 | O=C(NCc1ccccc1)NC[C@H]1Cn2c(-c3ccc(Cl)cc3)cnc2CO1 | -9.6%[70.6 µM]
101 | COc1ccc(-c2cc(C[C@@H]3CC[C@H](O)[C@@H](CNCc4cccc(Cl)c4)O3)no2)cc1 | ?
102 | COCc1nc(C2CCNC2)no1 (stereo not drawn) | -4.2%
103 | COc1ccc(CNC(=O)c2noc(-c3ccc(F)cc3)n2)cc1OC | ?
104 | Cc1cccc(NC(=O)N2CCC3(CC2)CC(N(C)Cc2ccccc2)CCO3)c1 (stereo not drawn) | -1.3%
105 | Cc1nc(N2CCN(C(=O)c3ccc(F)c(Cl)c3)CC2)cc(C(F)(F)F)n1 | -4.1%
106 | Cc1nn(-c2ccccc2)c(C)c1[C@@H]1C=C[C@@H](NC(=O)c2ccc(N(C)C)cc2)C1 | ?
107 | Cc1cccc(NC(=O)N2CC(Oc3ccc(-c4nc(-c5ccccc5)no4)cc3)C2)c1 | ?
108 | Cc1ccc(CN(C)Cc2cccc(C(F)(F)F)c2)cc1 | 17.3%[70.6 µM]
109 | NC(=O)C1(N2CCCCC2)CCN(c2ncncc2-c2nc(-c3ccccc3)no2)CC1 | -0.3%
110 | COc1ccc(NC(=O)C2CC(=O)N(c3n[nH]c4ccccc34)C2)cn1 (stereo not drawn) | 2.3%
111 | O=C(NC1CC1)[C@@H]1C[C@H](Oc2cccnc2)CN1C(=O)CCCc1c[nH]c2ccccc12 | -2.4%
112 | Cc1nn(C)c2nc(N3CCCCC3CN3CCOCC3)sc12 (stereo not drawn) | 4.9%

Three compounds out of the list, ordered by length of the SMILES, ascending.
# | smiles | NPR1 antag
108 | Cc1ccc(CN(C)Cc2cccc(C(F)(F)F)c2)cc1 | 17.3%[70.6 µM]
107 | Cc1cccc(NC(=O)N2CC(Oc3ccc(-c4nc(-c5ccccc5)no4)cc3)C2)c1 | ?
111 | O=C(NC1CC1)[C@@H]1C[C@H](Oc2cccnc2)CN1C(=O)CCCc1c[nH]c2ccccc12 | -2.4%

A portion of the library (hit frequency here may not be typical).
